Bioassay records as filed in PubChem.
KCNQ2 pot = potentiators of rat KCNQ2 potassium channel | actives 0.54% (n = 310,000) | CHO-K1 KCNQ2, FluxOR thallium flux fluorescence; stronger effect = higher value | Potassium voltage-gated channel subfamily KQT member 2 (Rattus norvegicus), O88943 | B-score at 10 µM;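 active = fluorescence ratio B-score at least 3 SD of library B-scores, with initial fluorescence B-score within 3 SD, cut at about 5.3 in these data; same plate scores as AID 2156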;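 also: B-score of peak minus minimum over baseline fluorescence ratio after K+ and Tl+ stimulus; positive B-score means potentiation of KCNQ2 with more thallium influx and brighter signal; only the inactives scoring about 0 or higher are listed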
Target sequence (O88943 whole entry, looked up): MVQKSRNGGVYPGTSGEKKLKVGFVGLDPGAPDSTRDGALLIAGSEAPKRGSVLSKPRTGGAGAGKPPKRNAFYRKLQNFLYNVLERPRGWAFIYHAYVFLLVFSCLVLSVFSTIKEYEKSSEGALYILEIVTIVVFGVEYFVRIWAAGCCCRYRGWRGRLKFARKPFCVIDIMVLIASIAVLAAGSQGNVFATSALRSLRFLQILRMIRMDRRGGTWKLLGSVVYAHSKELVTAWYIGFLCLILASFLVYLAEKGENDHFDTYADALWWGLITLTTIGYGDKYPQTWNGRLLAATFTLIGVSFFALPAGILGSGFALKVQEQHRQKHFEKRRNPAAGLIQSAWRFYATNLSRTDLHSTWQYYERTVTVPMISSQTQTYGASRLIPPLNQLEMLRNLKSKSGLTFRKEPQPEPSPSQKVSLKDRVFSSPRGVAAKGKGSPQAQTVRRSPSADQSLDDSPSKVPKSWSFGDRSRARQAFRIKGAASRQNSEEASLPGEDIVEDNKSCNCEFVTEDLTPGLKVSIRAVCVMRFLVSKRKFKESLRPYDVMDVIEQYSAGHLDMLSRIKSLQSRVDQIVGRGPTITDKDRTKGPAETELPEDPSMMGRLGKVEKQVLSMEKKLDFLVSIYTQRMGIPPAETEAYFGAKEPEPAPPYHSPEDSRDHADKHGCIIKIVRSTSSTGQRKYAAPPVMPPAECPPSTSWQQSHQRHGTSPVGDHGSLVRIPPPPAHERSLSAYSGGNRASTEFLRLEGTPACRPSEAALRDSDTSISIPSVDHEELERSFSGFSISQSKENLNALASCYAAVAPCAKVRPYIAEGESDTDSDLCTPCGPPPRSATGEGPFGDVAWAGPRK
KCNQ2 pot baseline = further read-out of KCNQ2 pot, marked with its call; B-score; compound at 10 µM; measured here: initial fluorescence intensity artifact check;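 brightness before thallium and not channel activity; 0 = typical well and far values either way flag optical interference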
Active calls of the source: *; / = no result given. The list is partial; count on the stated rates, not on these rows.

SMILES | KCNQ2 pot | KCNQ2 pot baseline
CSc1ccc(CNC(=O)C2Cc3cc(S(=O)(=O)N4CCCCC4)ccc3N2C(C)=O)cc1 (stereo not given) | 0.08 | 0.33
CC(C)CCNC(=O)c1c[nH]c2ccc(S(=O)(=O)N3CCC4(CC3)OCCO4)cc2c1=O | 1.3 | -1.9
COc1ccc(CCNC(=O)c2cc(-c3ccc(C)cc3O)n[nH]2)cc1OC | 1.6 | 1.1
O=C(NCc1ccccc1)C1(C(F)(F)F)C/C(=C\CCO)CCCO1 (stereo not given) | 0.06 | 0.06
Cc1cccc(C(=O)Nc2scc(-c3ccc(Br)cc3)c2C(=O)O)c1 | 2.4 | 0.09
COc1cccc2cc(-c3nnc(SCC(=O)Nc4nc(C)cs4)n3C)oc12 | 1.7 | -1.2
O=C(NCc1cccc(F)c1)C1CCN(C(=O)c2sccc2-n2cccc2)CC1 | 0.59 | 0.44
O=C(CN1CCCN(S(=O)(=O)c2ccc(F)cc2)CC1)Nc1c(Cl)cccc1Cl | 0.65 | 0.04
Cc1nc2ccccn2c1/C(O)=C1\C(=O)C(=O)N(CCN2CCOCC2)C1c1ccncc1 (stereo not given) | 0.52 | 0.03
Cc1ccc(S(=O)(=O)NNC(=O)Nc2cccc3ccccc23)cc1 | 2.4 | -0.51
COc1ccc(COCC(O)CN2CCC(CN3C(=O)c4cccc5cccc(c45)C3=O)CC2)cc1OC (stereo not given) | 1.7 | 0.64
O=C(NCCc1ccccc1)c1ccccc1SCC(=O)N1CCCC1 | 1.4 | -0.28
CC1CCN(CCCNC(=O)CN2C(=O)CSc3ccc(S(=O)(=O)N4CCCCC4)cc32)CC1 | 1.3 | 1.5
O=C(NC1CCCCC1)C(c1ccccc1F)N(C(=O)c1csnn1)C1CCCC1 (stereo not given) | 0.95 | 0.85
CC(=O)Nc1sc(-c2ccc(Cl)cc2)nc1-c1ccccc1 | 1.9 | 0.48
CCOC(=O)c1cc(NC(=O)Nc2nccs2)c(C)nc1C | 0.18 | -1.1
CCCC(=O)NC(=S)Nc1ccccc1F | 1.1 | -1.1
CCCCCc1c(C)nc(SCC(=O)O)[nH]c1=O | 0.44 | -0.57
COc1ccc2cc(CCNC(=O)CC(C)(C)C)c(=O)[nH]c2c1 | 0.1 | 0.11
CCOC(=O)Cc1csc(NC(=O)CCNS(=O)(=O)c2ccc3c(c2)CCC(=O)N3)n1 | 0.85 | 0.43
C/C=C(\C)C(=O)NCCN1C2=NC[C@@H](C)N2C[C@H]1Cc1ccc(O)cc1 | 1.5 | 1.8
O=C(O)c1ccc(-c2noc(-c3ccccc3F)n2)cc1 | 1.6 | -1
CC1(C)CCCN(Cc2c(O)ccc3c(=O)c(-c4nc5ccccc5s4)c(N)oc23)C1 | 0.99 | 1.1
CCCC(=O)N(C)c1nnc(-c2ccc(OC)cc2)s1 | 0.99 | -2.1
CCOC(=O)N1CCN(C(=O)CCNS(=O)(=O)c2cc(Br)cnc2N)CC1 | 0.25 | -1.1
O=C(Nc1ccc(S(=O)(=O)N2CCCCC2)cc1)c1ccccc1Cl | 0.04 | -0.46
COc1ccc(-c2nnc(SCC(=O)NCCc3ccccc3)o2)cc1 | 0.08 | -2
CC(=O)c1ccc(NC(=O)C(C)NCc2ccccc2Cl)cc1 (stereo not given) | 0.45 | -0.49
S=c1[nH]nc(Cc2cccs2)n1-c1ccccc1Cl | 0.22 | 1.8
CC(C)c1nnc(NC(=O)CCC(=O)NCCc2ccccc2)s1 | 0.16 | -2
CCc1noc(C)c1C(=O)Nc1sc(C(=O)N(C)C)c(C)c1C(=O)OC | 0.68 | -1.5
OCC1N=C(c2ccccn2)OC1c1ccccc1 (stereo not given) | 0.05 | -0.31
O=C(Cn1cnnn1)OCC(=O)c1ccc(Cl)s1 | 0.59 | 1.2
COc1ccc(OC)c(NC(=O)CCn2cccc2)c1 | 0.92 | 1.4
Cc1ccc(C2C3=C(CC(C)(C)CC3=O)NC3=C2C(=O)c2ccccc23)cc1 (stereo not given) | 0.46 | 2.8
CCN(CC)S(=O)(=O)c1cc(NS(=O)(=O)c2cccc(Cl)c2Cl)ccc1C | 0.83 | -0.75
COc1ccc(C(=O)COC(=O)CCN2C(=O)C3C4CC(C(Br)C4Br)C3C2=O)cc1 (stereo not given) | 0.95 | 1.3
COc1ccccc1-c1c(C)oc2c(CN3CCCCC3C)c(O)ccc2c1=O (stereo not given) | 2.1 | 0.08
C/C(=N\N=C\c1ccc(N(C)C)cc1)c1cccc([N+](=O)[O-])c1 | 1.6 | -1
O=C(c1cc2cc(Cl)ccc2[nH]1)N1CCCCC1 | 1.1 | -0.2
O=C(O)C1C2C=CC(C2)C1C(=O)NCc1cccc(Cl)c1 (stereo not given) | 1.5 | -1.3
C[C@H](NC(=O)OC(C)(C)C)c1nnc(SCC(=O)c2ccc(Cl)cc2)o1 | 0.9 | -0.38
O=C(NCc1ccccc1Br)C1CCCO1 (stereo not given) | 0.01 | 1.8
CC(OC(=O)c1ccco1)C(=O)NC1CCCC1 (stereo not given) | 1.2 | -1.2
Cc1ccc(C(=O)NNC(=S)NC(=O)c2ccccc2)cc1 | 1.1 | 0

Given with the structure last: 5 of the compounds above
KCNQ2 pot	KCNQ2 pot baseline	canonical_smiles
0.46	2.8	Cc1ccc(C2C3=C(CC(C)(C)CC3=O)NC3=C2C(=O)c2ccccc23)cc1 (stereo not given)
0.92	1.4	COc1ccc(OC)c(NC(=O)CCn2cccc2)c1
0.01	1.8	O=C(NCc1ccccc1Br)C1CCCO1 (stereo not given)
0.05	-0.31	OCC1N=C(c2ccccn2)OC1c1ccccc1 (stereo not given)
0.83	-0.75	CCN(CC)S(=O)(=O)c1cc(NS(=O)(=O)c2cccc(Cl)c2Cl)ccc1C

Other records.
SMILES | KCNQ2 pot | KCNQ2 pot baseline
CCN(CC)c1ccc(NC(=O)c2ccc(Br)o2)cc1 | 4.5 | 0.74
Cc1ccnc(NC(=O)CSc2ccc3c(c2)OCCO3)c1 | 0.52 | -0.17
Cc1nnc(NCCc2ccccc2)c2ccccc12 | 0.57 | -0.68
Cc1ccc(O)c(NC(=O)CSc2n[nH]c(C)c2[N+](=O)[O-])c1 | 0.01 | -1.1
CC(C)(C)C(=O)NC1(C(F)(F)F)NC(=O)N(c2ccccc2F)C1=O (stereo not given) | 2 | 0.14
O=C(O)CC(C(=O)O)c1ccc(OCCCCOc2ccc(C(CC(=O)O)C(=O)O)cc2)cc1 (stereo not given) | 1.1 | 3.2
C/C(=N\NC(=O)c1ccc(NS(=O)(=O)c2cccs2)cc1)c1ccc2ccccc2c1 | 0.7 | -2.3
COC(=O)c1ccc2c(=O)n(CCN3CCOCC3)c(SCC(=O)Nc3ccc(C)cc3)nc2c1 | 0.37 | 0.28
O=C(NN1C(=O)C2C3C=CC(O3)C2C1=O)c1ccncc1 (stereo not given) | 0.47 | -0.01
Cc1ccc(OCC(=O)Nc2ccc(S(=O)(=O)Nc3ccccn3)cc2)cc1 | 0.31 | 0.06
CC(C)(C)NC(=O)CSc1nncn1NCc1cccc2ccccc12 | 1.2 | -1.2
O/N=C/c1cn(-c2ccccc2)nn1 | 0.25 | -0.99
O=C(CCCCCl)Nc1c2c(nc3ccccc13)CCC2 | 1.2 | -0.04
CCN(Cc1cc2cc(C)ccc2[nH]c1=O)C(=O)c1cccc(OC)c1 | 0.38 | 0.88
Cn1nccc1C(=O)N1CCN(c2ccccc2F)CC1 | 0.76 | 0.55

Not a retest: 2 of the compounds above.
SMILES | KCNQ2 pot | KCNQ2 pot baseline
CCN(Cc1cc2cc(C)ccc2[nH]c1=O)C(=O)c1cccc(OC)c1 | 0.38 | 0.88
Cn1nccc1C(=O)N1CCN(c2ccccc2F)CC1 | 0.76 | 0.55

Next part
SMILES | KCNQ2 pot | KCNQ2 pot baseline
COc1cc(C(=O)Oc2ccc(C(=S)N3CCOCC3)cc2)cc(OC)c1OC | 0.12 | 0.76
CC1CCC2(CC1)NC(=O)N(CC(=O)NCc1ccc3c(c1)OCO3)C2=O (stereo not given) | 3.1 | -0.48
CCCCNC(=O)N1CCCN(c2ccc(C#N)cn2)CC1 | 0.44 | 1.7
O=C(Cn1ncc2c1-c1ccccc1OC2)Nc1cccc(Cl)c1 | 3.8 | -0.07
CCOC(=O)c1ccc(NC(=O)CSc2nnc(C3CC3)n2CC)cc1 | 0.24 | -0.22
Cc1nnc(NC(=O)C2CCN(c3nnnn3-c3ccccc3)CC2)s1 | 0.01 | -0.79
O=C(Cc1ccc(Br)cc1)NCc1ccccc1 | 0.02 | 0.04
COc1cccc(CN2CCN(Cc3ccco3)CC2)c1 | 0.16 | 0.55
COc1ccc(NC(=O)c2cccc(N3C(=O)c4cccc([N+](=O)[O-])c4C3=O)c2)cc1 | 0.02 | -0.35
Cc1ccccc1C(=O)Nc1ccnn1C1CCN(CC2CC=CCC2)CC1 (stereo not given) | 0.55 | -0.94
CCCN(CCC)CCNC(=O)C1CCN(S(=O)(=O)c2cccc3nsnc23)CC1 | 0.01 | 1.1
Cc1ccc(NC(=O)N2CCC(C(=O)c3ccc(F)cc3)CC2)cc1 | 1.5 | -0.1
CCCCN1C(=O)C(O)(CC(=O)c2c(C)n[nH]c2C)c2cc(Br)ccc21 (stereo not given) | 0.03 | -0.08
CC(C)CCN(C(=O)CCSc1ccc(F)cc1)c1c(N)n(Cc2ccccc2)c(=O)[nH]c1=O | 0.46 | 0
COc1ccc(C(=O)CN2C(=O)NC3(CCCCCC3)C2=O)c(OC)c1 | 0.59 | -1.6
Cc1cc(C)[n+]2[nH]c(N)c(N=Nc3ccccc3)c2n1 | 0.97 | -0.71
CC(C)c1c(C(=O)N/N=C/c2ccsc2)nnn1-c1nonc1N | 0.44 | 0.13
CCOc1ccc(C(=O)Nc2ccc(NC(=O)c3cccs3)cc2)cc1[N+](=O)[O-] | 0.64 | 2.3
C=CCNc1oc(Cc2cccc3ccccc23)nc1C#N | 0.43 | -0.11
COc1ccccc1CN1CCNC(=O)C1CC(=O)N(C)CC1CCOCC1 (stereo not given) | 1.3 | 0.68
Cc1cc2cc(CNC(=O)c3ccc(Br)o3)ccc2[nH]1 | 0.79 | -0.18
CC(C)(C)n1cnc2cc(NC(=O)c3ccccc3)ccc21 | 0.03 | 1.2
Fc1cccc(/C=C2\CCCC3=C2NC(=S)NC3c2cccc(F)c2)c1 (stereo not given) | 0.82 | -0.13
CNC1=C([N+](=O)[O-])CC([N+](=O)[O-])=C(N2CCNCC2)N1C | 0.13 | -0.33
Cn1c(S(=O)(=O)Cc2ccc(Cl)cc2)nc2ccccc21 | 0.9 | -0.25
CCC(=O)c1cn(CC(=O)Nc2cccc(C)c2)c2ccccc12 | 1.3 | -1.8
Cc1cc(C)cc(N(CC(=O)NC2CCC(C)CC2)S(=O)(=O)c2c(C)[nH]c(=O)[nH]c2=O)c1 (stereo not given) | 0.99 | 0.47
CCCCn1c(N)c(N2CCOCC2)c(=O)n(CC(=O)NC(C)c2ccccc2)c1=O (stereo not given) | 1.7 | 0.93
O=C(NC(=S)Nc1ccccc1N1CCCC1)c1ccc(-c2cccc([N+](=O)[O-])c2)o1 | 1.9 | 1.5
Cc1cc(C)n(Cc2ccc(NC(=O)c3nn(C)cc3[N+](=O)[O-])cc2)n1 | 1.4 | -0.22

The last 3 entries of the section before open the next one.
SMILES | KCNQ2 pot | KCNQ2 pot baseline
CCCCn1c(N)c(N2CCOCC2)c(=O)n(CC(=O)NC(C)c2ccccc2)c1=O (stereo not given) | 1.7 | 0.93
O=C(NC(=S)Nc1ccccc1N1CCCC1)c1ccc(-c2cccc([N+](=O)[O-])c2)o1 | 1.9 | 1.5
Cc1cc(C)n(Cc2ccc(NC(=O)c3nn(C)cc3[N+](=O)[O-])cc2)n1 | 1.4 | -0.22
Cc1nn(CC(=O)Nc2ccc(C(=O)N3CCCC3)cc2)c(=O)c2ccccc12 | 0.65 | -1.1
COCC(=O)N1CCC(Oc2ccc(C(=O)NC(C)c3csc(C)n3)cc2)CC1 (stereo not given) | 0.44 | -0.42
CCOC(=O)C(NC(C)=O)(Nc1ccc(S(N)(=O)=O)cc1)C(F)(F)F (stereo not given) | 0.02 | 0.84
CCc1nnc(NC(=O)CSc2nc3c(C)cccc3[nH]2)s1 | 2.3 | -0.45
NS(=O)(=O)c1ccc(CNC(=O)c2csc3c2CCCC3)cc1 | 0.23 | 1.5
CCNc1nc(NC(C)C)nc(SCCOc2ccc(C)cc2)n1 | -5.6 | /
O=C(Nc1ccc(-c2cn3c(n2)SCC3)cc1)c1ccc2c(c1)OCO2 | 0.09 | -0.9
COc1ccccc1-c1noc(-c2ccccc2C(=O)N2CCOCC2)n1 | 0.69 | -1.6
COc1ccc(C(=O)OCCNC(=O)c2ccncc2)cc1OC | 2.8 | -1.8
CC1(C)OC(=O)C(=CNC(CCC(N)=O)C(=O)O)C(=O)O1 (stereo not given) | 0.04 | -0.32
CC(=O)c1cn(C)c(=O)c2ccccc12 | 0.11 | -1.5
COc1cc(/C=N/NC(=O)c2cc(-c3ccccc3Cl)nc3ccccc23)cc(OC)c1O | 0.14 | 0.65
Nc1nc(-c2cccnc2)nn1C(=O)c1ccco1 | 2.4 | 0.39
Cc1cc2nnc(SC3CCOC3=O)n2c2ccccc12 (stereo not given) | 1.2 | -0.41
N#Cc1c2ccc(OCC(N)=O)cc2n2ccccc12 | 0.67 | 1.2
O=C(CN(C(=O)CCC(=O)Nc1nccs1)c1ccccc1F)NCc1ccc(F)cc1 | 0.11 | -0.27
COc1ccccc1N1CCN(C(=O)CCNS(=O)(=O)c2cc(Br)cnc2N)CC1 | 1.6 | -1.5
Cc1ccc(C)c(OCC(=O)Nc2ccncc2)c1 | 2.4 | -0.49
